CDC25B CDK2 inh = human CDC25B-CDK2/CyclinA binding inhibition; HTRF CDC25B-CDK2/CyclinA binding, anti-His/anti-Flag; active compounds read high; hit rate 0.72% among 94,000; z-score (no concentration beside the values); P30305+P24941;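 also: score is relative to mean and SD of negative controls; strong numbers were not always called active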
TAR Tat displ = HIV-1 TAR-Tat binding disruption; HIV-1 TAR RNA, Tat peptide displacement FRET; active compounds read high; z-score (no concentration beside the values); hit rate 0.6% among 100,000;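 also: score is relative to mean and SD of negative controls; some compounds called inactive have numbers as strong as hits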
* hit, by the source's call; x = not tested or not shown.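 The calls were made as follows: active = z-score from 3 up in half or more of its runs; inactive = the rest.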

mol,CDC25B CDK2 inh,TAR Tat displ
Cc1[nH]nc(NCc2ccccc2)c1[N+](=O)[O-],-0.53,0.42
NC(=O)c1nc(Nc2ccccc2)sc1NC(=O)c1cc(-c2ccco2)nc2ccccc12,x,20*
CCN1CCN(c2nnc(-n3cccc3CNc3ccc(C)cc3C)s2)CC1,x,0.44
CC(C)CCNc1nc(N)c([N+](=O)[O-])c(Nc2ccccc2F)n1,x,1.9
CCOc1ccc(OCCSc2nc3ccccc3n2CC(=O)O)cc1,-2.1,1
Cc1cc(C)cc(NC(=O)N2CCSc3ccccc32)c1,x,0.82
C=CCN1CCc2cc(O)c(O)cc2C(c2ccccc2)C1 (centres undefined),-1.1,x
O=C1c2cccnc2C(=O)N1CCc1ccc(S(=O)(=O)N2CCCC2)cc1,x,0.11
CCOc1c(Br)cc(CNCCSc2nnnn2-c2ccccc2)cc1OC,-0.47,0.11
CC(=O)Oc1ccc(C2Nc3ccc4ccccc4c3C3C=CCC32)c(OC(C)=O)c1 (centres undefined),-1.4,-7.8
O=C(Nc1nonc1-c1ccc(Br)cc1)c1ccccc1,0.55,2.8
O=C(COc1ccc(Br)cc1)Nc1nc(-c2cccs2)ns1,0.61,-0.03
CN(C)Cc1c(O)ccc2c(=O)c(Oc3ccccc3Cl)c(C(F)(F)F)oc12,-0.49,1.3
Cc1ccccc1-n1cc(-c2ccccc2)c2c(NC3CC3)ncnc21,1.2,-0.11
CCOC(=O)Cn1c(N)c(C(=O)OC)sc1=S,x,2.4
COc1ccccc1CN1COc2cc3c(cc2C1)OCO3,-3.7,x
CCOC(=O)c1cc(NC(=O)N(C)C2CCCCC2)c(C)nc1C,-3.2,0.8
Cn1c(=O)c2c(nc(NCc3ccccc3)n2Cc2ccccc2F)n(C)c1=O,-1.4,3.1
O=C1c2nccnc2C(=O)N1c1ccc2c(c1)OCCO2,-0.67,0.9
CCOC(=O)c1sc(=S)n(-c2ccc(F)c(Cl)c2)c1N,x,0.94
N#Cc1c(N)nc(SCC(=O)c2ccc(O)c(O)c2)c(C#N)c1-c1cccc(Cl)c1,-2.3,x
CNC(=O)CN1C(=O)CCn2nc(-c3cn(C)c4ccccc34)cc21,x,0.73
O=C1CCSc2ccc(S(=O)(=O)N3CCCN(Cc4ccc(F)cc4)C3)cc2N1,x,0.97
CC(C)CCN1C(=O)c2cc3occc3n2CC1(C)C(=O)NC1CCCC(C)C1C (centres undefined),x,1.6
Cc1ccc(S(=O)(=O)c2nnn3c2nc(N2CCOCC2)c2cc(Cl)ccc23)cc1C,-2.1,-0.4

The list goes on:
mol,CDC25B CDK2 inh,TAR Tat displ
O=c1[nH]c2cc3c(cc2c(=O)n1CCc1nc(-c2ccc(F)cc2)no1)OCO3,x,0.65
Cn1cccc1-c1cc2n(n1)CCCN2C(=O)CCC(=O)NC1CCCC1,x,0.58
CCC(=O)N1c2ccccc2CC1C(=O)NCc1ccc(C)o1 (centres undefined),x,0.32
O=C(c1ccc(Br)o1)N1CCN(c2ccccc2)CC1,0.14,x
CC(C)c1nnc2sc(Cc3ccc(Cl)cc3)nn12,0.15,0.74
CSc1nc(-c2ccc(Cl)cc2)nc2c1Cc1c(CO)cnc(C)c1O2,x,0.4
Cc1ccc(C2=NS(=O)(=O)N(C)C(C(=O)Nc3cnn(Cc4ccc(F)cc4)c3)=C2)cc1,-1.7,1.1
O=C(CSc1ncnc2c1sc1cccc(F)c12)N1CCC(N2CCCCC2)CC1,x,-4.9
COc1cc(CNc2ncn[nH]2)cc(Cl)c1OC,-1.7,0.18
CN(Cc1ccco1)S(=O)(=O)c1ccc2[nH]c3c(c2c1)CCCCC3,x,1.9
CC(=O)Nc1nnc(-c2nc3ccccc3n(C)c2=O)o1,x,3.9
CCOC(=O)c1c(NC(=S)Nc2ccccc2)sc2c1CCN(C)C2,-0.69,x
Cc1[nH]nc(-c2ccc(S(=O)(=O)N(C)Cc3cnn(-c4ccccc4)c3)s2)c1C,x,0.42
Cc1cccc(S(=O)(=O)N2CCN(c3cc(N4CCCC4)nc(C)n3)CC2)c1,-0.99,1.1
CC(=O)N1CC(C)Oc2ccc(S(=O)(=O)N3CCCc4ccccc43)cc21 (centres undefined),x,0.14
CCCN(CCC)Cc1csc2c1CCCC2,x,0.4
CC(=O)Nc1ccc(OCc2cc(=O)n3nc(CC(C)C)sc3n2)cc1,-1.4,2
CC(C)NC(=O)C(=O)NCC(c1ccco1)S(=O)(=O)c1ccc(Cl)cc1 (centres undefined),x,2.2
CCOC(=O)c1sc2nccnc2c1N,-1.6,x
COc1cc(CNCCO)ccc1OCc1ccc(F)cc1,-0.36,0.35
COc1ccc(Cl)c(Cn2c(NCCCN(C)C)nc3c2c(=O)n(C)c(=O)n3C)c1,-0.28,0.21
Cc1cccc(-c2nnn3c2nc(N2CCOCC2)c2cc(Cl)ccc23)c1,-1.8,-0.96
CS(=O)(=O)N1CCCc2cc(C(=O)N3CCCC3)ccc21,-0.94,0.27
CCN(CC)S(=O)(=O)c1ccc2c(c1)N(CC(=O)NC1CCCC1)C(=O)CS2,-0.74,x
Cc1cc(=O)nc2c3ccccc3n(C(C)C(=O)NCc3cccc(Br)c3)n12 (centres undefined),-1.5,-0.68

In the list so far, two have a nitro group on carbon.
mol,CDC25B CDK2 inh,TAR Tat displ
Cc1[nH]nc(NCc2ccccc2)c1[N+](=O)[O-],-0.53,0.42
CC(C)CCNc1nc(N)c([N+](=O)[O-])c(Nc2ccccc2F)n1,x,1.9

Some of these compounds in order of count of non-hydrogen atoms, smallest number first:
mol,CDC25B CDK2 inh,TAR Tat displ
O=C(COc1ccc(Br)cc1)Nc1nc(-c2cccs2)ns1,0.61,-0.03
CCN(CC)S(=O)(=O)c1ccc2c(c1)N(CC(=O)NC1CCCC1)C(=O)CS2,-0.74,x
O=C1CCSc2ccc(S(=O)(=O)N3CCCN(Cc4ccc(F)cc4)C3)cc2N1,x,0.97

Additional results follow.
mol,CDC25B CDK2 inh,TAR Tat displ
Clc1ccc(C#CCN2CCCCC2)cc1,-3.5,x
O=C(Cc1ccccc1I)OCC(=O)c1ccc(Br)cc1,0.73,x
O=C(O)C1CCCN1c1nc2cccnc2s1 (centres undefined),-0.2,0.3
O=c1c2cn[nH]c2[nH]c(=S)n1-c1ccc(Cl)cc1,-0.14,x
CCC(C)NC(=O)c1ccc2c(=O)n(CCC(C)C)c3n[nH]c(=O)n3c2c1 (centres undefined),-0.34,-0.56
CCn1nc(C)c(CNC(=O)Nc2ccc(F)c(Cl)c2)c1C,x,-0.42
COc1cccc(N2CCN(c3c4c(nc5nncn35)CCC4)CC2)c1,-0.31,1
Cc1cc(C)cc(CC(CC(=O)O)C(=O)O)c1 (centres undefined),0.31,0.46
Cc1ccc(-c2nc3ncccc3o2)cc1NC(=O)c1cccc2c(Br)cccc12,-1.8,x
Cc1cccc(CN2C(c3ccc(Br)cc3)Nc3ccccc3S2(=O)=O)c1 (centres undefined),x,1.8
CC1Cc2ccccc2N1S(=O)(=O)c1nnc(NC(=O)c2ccco2)s1 (centres undefined),-0.43,0.21
Cc1nnc(NC(=O)CSc2nc3c(c(=O)n2-c2ccccc2)SC(C)C3)s1 (centres undefined),-2.3,-0.06
Cc1ccc(Nc2nc(N3CCC(N4CCCCC4)CC3)nc3c2cnn3C)cc1,x,1.2
COc1ccc(NC(=O)CSc2nc3ncnc(N)c3[nH]2)cc1,-0.85,x
CC(C)N(C(=S)Nc1ccc2nc3c4ccccc4c4ccccc4c3nc2c1)C(C)C,10*,x
COC(=O)c1ccsc1NC(=O)c1ccc(C)cc1,-0.76,x
CCOC(=O)C1=C(C)N=C(N)SC1c1ccc(Cl)cc1 (centres undefined),-1.9,0.48
CC1CCN(C(=O)CSc2ncnc3c2sc2cccc(F)c23)CC1,x,-0.22
O=S(=O)(c1ccc(C(F)(F)F)cc1)n1nccc1-c1cc(-c2ccccc2)no1,-1.3,x
O=C(O)c1ccc2nc(N3CCCCC3)sc2c1,0.39,5.9
Fc1cccc(-c2nc(-c3ccc4c(c3)nnn4C3CCCC3)no2)c1,x,0.08
COc1cc(C2NC(=O)CCC2[N+](=O)[O-])c(OC)cc1Br (centres undefined),-2,1.9
O=C(CN1Cc2ccccc2C1=O)Nc1ccccc1F,x,-1.9
CCc1nn2c(=O)c(S(=O)(=O)NCc3ccc(F)cc3)c(C)nc2s1,-1.8,0.44
CN(C)/C=C/C(=O)c1nn(-c2ccc(C(F)(F)F)cc2)ccc1=O,0.08,x

Next section
mol,CDC25B CDK2 inh,TAR Tat displ
CCCCN(C)C(=O)Cn1ncc2c1-c1ccccc1OC2,-1,-0.12
Cc1ccc(S(C)(=O)=NC(=O)NS(=O)(=O)Oc2ccc(Cl)cc2Cl)cc1 (centres undefined),0.55,x
Cn1nc(C(=O)N2CCN(c3ccccn3)CC2)c2c1-c1ccccc1SC2,-2,1.8
CCOC(=O)C1=C(C)NC2=C(C(=O)C(C(=O)OC)C(C)C2)C1c1ccc(OC)cc1 (centres undefined),-1.2,-0.56
C=CCn1c(C2CC(=O)N(C)C2)nc2ccccc21 (centres undefined),-1.4,-0.54
CC(NC1CC(=O)N(c2ccc(-c3nc4ccccc4o3)cc2)C1=O)c1ccccc1 (centres undefined),-3.1,x
Nc1nc(/C=C/c2ccc(Br)cc2)nc(-c2ccccc2O)n1,-0.1,x
Cc1cc(C)n2ncc(-c3ccccc3)c2n1,-2.4,1.3
Cn1c(=O)oc2cc(S(=O)(=O)NCCn3c(-c4ccncc4)nc4ccccc43)ccc21,x,-0.22
O=C(c1cnn2c(C(F)(F)F)cc(-c3ccco3)nc12)N1CCCC1c1cccc(F)c1 (centres undefined),-1.8,0.35
Cc1ccc2ncnc(N(CC(C)C)CC(C)C)c2c1,0.09,0.5
Oc1cccc(O)c1,x,-1
COc1ccc(-c2noc(-c3ccc(OC)c(OC)c3)n2)cc1,-1.1,x
O=C(O)CSc1nnc(-c2ccc(Br)cc2)n1Cc1ccccc1,-1,-0.59
CCOC(=O)c1cnn(-c2cc(C(C)(C)C)nc3c(-c4ccc(F)cc4)c(C)nn23)c1N,0.75,0.45
O=C1CCCN1CCCNc1ncnc2onc(-c3ccc(Cl)cc3)c12,-1.5,-2.2
CCn1c(C(=O)N2CCC(C(=O)N3CCc4ccccc4C3)CC2)cc2occc21,-0.74,-2.2
Cc1ccc2nc(-c3c(-c4ccccc4)c4cc(C)ccc4[nH]c3=O)cc(-c3ccccc3)c2c1,-0.52,x
Cn1c(=O)[nH]c(=O)c2c1nc([N+](=O)[O-])n2Cc1ccc(F)cc1,-2,-1.3
O=c1[nH]c(/C=C/c2ccccc2O)nc2ccccc12,-0.96,1
CCCCNC(=O)c1sc(-n2[nH]c(C)c(C)c2=O)nc1C,-1.2,1.2
Cc1ccnc(N2C(=O)CSC2c2ccc(Cl)cc2)c1 (centres undefined),-1,x
Cc1ncc(-c2ccc(S(=O)(=O)Nc3cccnc3)cc2)o1,x,0.92
O=C(NCCN1CCOCC1)c1cnc2sc(N3CCOCC3)nn2c1=O,x,0.54
CCN(CC)c1c(S(=O)(=O)c2ccccc2)cnc2ccc(OC)cc12,-0.62,-0.07

Next entries follow:
mol,CDC25B CDK2 inh,TAR Tat displ
O=c1ccccn1CCOc1ccc(Br)cc1,-1.7,2.4
CCCS(=O)(=O)Nc1cc(-c2cn3ccccc3n2)ccc1C,-1.6,-0.21
CC(=O)Oc1cccc(N2Cc3ccccc3C2=O)c1,0.66,-2.9
Cn1c(=O)c2c(nc(N3CCCC3)n2Cc2ccccc2Cl)n(C)c1=O,-0.03,x
Cc1nn2c3c(cnc2c1-c1ccc(Cl)cc1)C(=O)CC(C)(C)C3,-1.4,-0.64
CCC(C)NC(=O)C1CCC(CNc2c(N3CCOCC3)c(=O)c2=O)CC1 (centres undefined),0.25,x
CCN1CCC(N(Cc2ccc3c(c2)OCO3)C(=O)Nc2ccc3c(c2)OCCO3)CC1,x,1.7
CC(C)Cn1c(=O)c2c(nc3n2CCN3c2ccc(Cl)cc2)n(C)c1=O,x,3.7
CCOC(=O)C1=C(C)Nc2nc(SCc3ccc(F)cc3)nn2C1c1cccs1 (centres undefined),-2.5,0.86
CCc1nn2c(=O)c(NC(=O)c3ccc(C(C)(C)C)cc3)cnc2s1,-1.3,0.93
Cc1ccc2oc(-c3ccc(Br)cc3)cc(=O)c2c1,-1.3,-0.76
O=C(CSc1ccc2nnc(-c3cccc(F)c3)n2n1)NC1CCCC1,-1.7,x
CCc1ccc(S(=O)(=O)c2nnn3c2nc(NCCOC)c2sccc23)cc1,x,-0.26
N#Cc1c(N)n(Cc2ccccc2)c(=O)c2cccnc12,-2.9,x
Cc1cn2c(=O)cc(COC(=O)COc3ccccc3C)nc2s1,x,1.9
O=C1CCSc2ccc(S(=O)(=O)NC3CC3)cc2N1,x,-0.68
CCc1ccc(OCC(=O)Nc2ccc(-c3nc4cc(CC)ccc4o3)c(O)c2)cc1,-0.93,x
CCOP(=O)(OCC)C(C)(CC)NC(=S)Nc1c(C)cc(C)cc1C (centres undefined),-3.4,x
CC(C)OC(=O)C(C)Oc1ccc2c(=O)c(Oc3ccccc3Br)coc2c1 (centres undefined),-0.93,0.14
Cn1nnnc1SCCNCc1ccc(OCc2ccc(Cl)cc2)cc1,-0.73,0.95
FC(F)(F)c1nnc2sc(-c3ccc4c(c3)OCO4)nn12,0.29,0.87

A few values from the results shown:
CDC25B CDK2 inh with O=C1c2nccnc2C(=O)N1c1ccc2c(c1)OCCO2 → -0.67
CDC25B CDK2 inh with CN(C)/C=C/C(=O)c1nn(-c2ccc(C(F)(F)F)cc2)ccc1=O → 0.08
TAR Tat displ with CCOc1ccc(OCCSc2nc3ccccc3n2CC(=O)O)cc1 → 1

Compound activity: PubChem BioAssay, Center for Chemical Genomics, University of Michigan

Outcome played no part in choosing rows. Share with any hit: about 0.87%.
